# Assay outcomes deposited in PubChem by National Center for Advancing Translational Sciences (NCATS).
# VDR inh = vitamin D3 receptor (human) inhibition | P11473 | VDR-SRC2-3 peptide fluorescence polarization, 2 h | Potency, µM, for inactives: max response, negative = inhibition, actives largely listed as inhibitors | 400,000 compounds, 0.93% hits; active means well fitted inhibition curve with a large enough effect; inconclusive means small, poorly fitted or top-dose-only effect, or another doubt; inactive means no such curve, though single readings can be large or run the other way; further: series mostly up to about 120 µM
# Target sequence (P11473 whole entry, looked up): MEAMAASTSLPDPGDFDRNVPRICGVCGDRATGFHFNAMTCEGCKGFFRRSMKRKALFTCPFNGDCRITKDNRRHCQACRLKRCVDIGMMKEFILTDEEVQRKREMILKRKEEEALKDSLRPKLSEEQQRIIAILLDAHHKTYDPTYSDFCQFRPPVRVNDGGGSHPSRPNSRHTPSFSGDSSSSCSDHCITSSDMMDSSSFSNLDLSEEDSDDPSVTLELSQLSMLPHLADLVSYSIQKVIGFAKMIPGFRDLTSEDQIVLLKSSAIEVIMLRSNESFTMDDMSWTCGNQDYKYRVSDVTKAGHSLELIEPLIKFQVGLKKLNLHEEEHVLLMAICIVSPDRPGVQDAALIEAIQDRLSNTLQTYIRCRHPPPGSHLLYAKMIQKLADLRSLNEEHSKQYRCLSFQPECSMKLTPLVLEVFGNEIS
#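 FP read-out; VDR + SRC2-3 coactivator peptide; 23 nl compound by pintool; 2 h RT incubation; reagents held at 4 deg C, protected from light.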
# Starred values were filed as active, the others as inactive; ? = inconclusive; & = joins results of further samples; [ ] = remark or other dose. On the % scale 0 is the no-effect control and ±100 the full control effect; potency means the concentration at half of the fitted maximal effect.
item	SMILES	VDR inh
1	COC(=O)c1cnn(-c2ccccc2)c1/C=N/NC(=S)Nc1ccc(Cl)cc1	-11%
2	COc1ccc(/C=N/OCC(=O)N(Cc2ccccc2)c2ccccc2C(=O)O)cc1	-10%
3	COCCn1c(SCC(=O)c2c[nH]c3ccccc23)nc2cc(C(=O)NCC(C)C)ccc2c1=O	-9%
4	O=C(Nc1ccc2c(c1)C(=O)OC2)c1ccccc1Cl	-2%
5	Cc1nc(N2CCOCC2)sc1C=O	4%
6	Cc1ccc(S(=O)(=O)CCC(=O)OCC(=O)N2CCc3ccccc32)cc1	-10%
7	CN1CCN(S(=O)(=O)c2cccc(C(=O)NCCC3=CCCCC3)c2)CC1	-8%
8	COCc1cc(C)nc(N2CCN(Cc3ccccc3)CC2)c1C#N	14%
9	O=C1CCCN1CCC1CCN(C2CC(=O)N(c3ccc(F)cc3)C2=O)CC1 (centres undefined)	5%
10	Fc1ccc(C(Nc2ccc(Cl)c(C(F)(F)F)c2)c2nnc(-c3ccccc3)o2)cc1 (centres undefined)	-3%
11	CCc1nnc(NC(=O)c2ccc(COc3ccccc3Cl)o2)s1	10%
12	N#Cc1c(N2CCSCC2)nsc1-c1ccccc1Cl	3%
13	O=C1C2C3C=CC(C4CC34)C2C(=O)N1c1cc(Cl)ccn1 (centres undefined)	6%
14	Cc1nnc(SCC(=O)N(CCC#N)c2ccc3c(c2)OCCO3)s1	7%
15	CCOC(=O)c1cc(NC(=O)c2ccco2)ccc1N1CCOCC1	16%
16	Cc1nn(CCC#N)c(N)c1C1(O)C(=O)Nc2c(Cl)cc(Cl)cc21 (centres undefined)	-2%
17	COc1ccc2cc(C(=O)N(C)Cc3ccccc3)[nH]c2c1	-4%
18	COCCN(C(=O)C(=O)NC1CCCC1)C(C(=O)NC1CCCC1)c1ccccc1F (centres undefined)	2%
19	Cc1ccc(CCNS(=O)(=O)c2cc(Br)cnc2N)cc1	-18%
20	O=C(c1cccc(S(=O)(=O)N2CCCc3ccccc32)c1)N1CCN(c2ccccc2)CC1	4%
21	COC(=O)c1ccc(S(=O)(=O)c2ccc(Cl)cc2)c(N)c1	116%[activator]
22	CCc1ccc(-n2c(SCC(=O)Nc3cc(C)[nH]n3)nc3[nH]ncc3c2=O)cc1	11%
23	O=C(NCC1CCCCC1)c1cccc(-c2ccc(O)cc2)c1	-10%
24	CCC(C)NC(=O)N[C@@H](CCSC)C(=O)O (some centres undefined)	18%
25	O=C(CN(c1ccc(F)cc1)S(=O)(=O)c1ccc2c(c1)OCCO2)NCc1ccncc1	-15%
26	CC1(C)CCCC(C)(C)N1CC(O)COCCOc1ccc(Br)cc1 (centres undefined)	-5%
27	Cc1cc2c3c([nH]c2cc1S(=O)(=O)NCc1ccc(CN2CCCCCC2)o1)CCCC3=O	-2%
28	CC(=O)Nc1ccc(NC(=O)CSc2ccc(-c3ccco3)nn2)cc1	?
29	CCN(C(=O)CSc1nnc(-c2ccccc2F)n1N)c1c(N)n(Cc2ccccc2)c(=O)[nH]c1=O	-3%
30	CN1CCC(N(C)C(=S)Nc2ccc(SC(F)F)cc2)CC1	?
31	O=C(Nc1ccccn1)c1ccc([N+](=O)[O-])cc1Cl	-19%
32	COc1ccccc1-n1cn[nH]c1=S	-10%
33	COc1ccc(CC(=O)Nc2c3c(nn2C(C)(C)C)CS(=O)(=O)C3)cc1	6%
34	Cn1c(CC(=O)Nc2ccc(Cl)cc2)nnc1SCC(=O)N1CCOCC1	-16%
35	Cc1csc(CNC(=O)c2ccc(OC3CCN(CCc4ccccc4)CC3)cc2)n1	0%
36	COc1ccc(CNC(=O)Cn2ccc3cc(S(=O)(=O)N4CCCC4)ccc32)cc1OC	-6%
37	CCC1(CC)NC(=O)N(CC(=O)OCC(=O)Nc2cc(OC)ccc2OC)C1=O	15%
38	Cc1ccc(S(=O)(=O)C(C)C(=O)NCCS(=O)(=O)c2ccc(Cl)cc2)cc1 (centres undefined)	-2%
39	Cc1ccc(C(=O)Nc2ccc3oc(-c4cccnc4)nc3c2)c(Cl)c1	-2%
40	N#CC1=C(N)C2=CCCC[C@H]2[C@H](c2ccccc2)C1(C#N)C#N	79µM*
41	COCCCNC(=O)Cn1cc(C(C)=O)c2ccccc21	0%
42	COc1cccc(C(=O)OCCCOC(=O)c2cccc(OC)c2OC)c1OC	-10%
43	COc1ccc(-n2c(SCC(=O)N3CCCc4ccccc43)nc3c([nH]c4ccccc43)c2=O)cc1	5%
44	CCOc1ccccc1NC(=O)CSc1nnnn1-c1ccccc1	12%
45	COCCn1c(=O)c(-c2cc(F)cc(F)c2)nc2cnc(N3CCOCC3)nc21	-3%
46	COCCNc1nnc(Cc2ccc(OC)c(OC)c2)c(=O)[nH]1	-21%
47	CCOc1cc2c(cc1OCC)C(C(=O)O)C(c1cc(OC)c(OC)c(OC)c1)N(C)C2=O (centres undefined)	-7%
48	Cn1cc(-c2nc3cnc(N4CCOCC4)nc3n(C3CC3)c2=O)c2ccccc21	-11%
49	CCCCOc1ccccc1Cn1c(=O)oc2ccccc21	7%
50	Cc1ccc2cc(C)c(SCC(=O)Nc3cc(C)on3)nc2c1	-14%
51	COc1ccc(NC(=O)CC2C(=O)N(c3ccc(F)cc3)C(=O)N2Cc2ccco2)cc1 (centres undefined)	-9%
52	Cc1cc(C)n(-c2ncnc3sc(C)c(C)c23)n1	1%
53	COc1ccc(NC(=O)Cn2nc(C)c([N+](=O)[O-])c2C)cn1	-11%
54	COc1ccc(CNC(=O)C(c2ccncc2)N(C(=O)Cc2cccs2)c2cccc(C)c2)cc1 (centres undefined)	4%
55	COc1cc(/C=N/NC(=O)c2c(-c3ccccc3)noc2C)cc(OC)c1OC	0%
56	CCN(CC)c1ncnc2scc(C3COc4ccccc4O3)c12 (centres undefined)	-21%
57	O=S(=O)(Cc1ccccc1)c1ccccc1-c1nnc(-c2ccccc2)o1	-14%
58	CCc1cccc(NC(=O)CCN2C(=O)c3ccccc3Sc3ncccc32)c1	11%
59	CO/N=C(/C(=O)N[C@H]1C(=O)N2C(C(=O)O)=C(COC(C)=O)CSC12)c1csc(N)n1 (some centres undefined)	?
60	CC(C)N1CCc2nc(SCC(=O)Nc3cccc(F)c3)[nH]c(=O)c2C1	21%

# In the list so far, these contain a thiophene ring, fused or not.
item	SMILES	VDR inh
52	Cc1cc(C)n(-c2ncnc3sc(C)c(C)c23)n1	1%
54	COc1ccc(CNC(=O)C(c2ccncc2)N(C(=O)Cc2cccs2)c2cccc(C)c2)cc1 (centres undefined)	4%
56	CCN(CC)c1ncnc2scc(C3COc4ccccc4O3)c12 (centres undefined)	-21%

# Next section
cpd | smiles | VDR inh
61 | COc1ccccc1NC(=O)Nc1ncccc1C | -5%
62 | Cn1nc(-c2ccccc2)c(-c2ccccc2)c(C(=O)Nc2ccccc2C(N)=O)c1=O | -5%
63 | Cc1cc(C)c(NC(=O)CS(=O)CC(=O)N2CCN(c3ccc(F)cc3)CC2)c(C)c1 (centres undefined) | -6%
64 | CCNS(=O)(=O)c1cc(Br)ccc1OC | 5%
65 | O=C(NC1CCS(=O)(=O)C1)N1CCCCC1 (centres undefined) | 3%
66 | CC(CCc1ccccc1)NC(=O)CNc1cccc([N+](=O)[O-])c1 (centres undefined) | -4%
67 | Cc1ccc(Nc2nc(NCCCN3CCOCC3)nc(N)c2[N+](=O)[O-])cc1C | 5%
68 | O=C(/C(=C(/[O-])c1ccccc1)[n+]1ccccc1)c1ccc([N+](=O)[O-])cc1 | 5%
69 | COc1ccc(N(CC(=O)Nc2ccc3c(c2)OCO3)S(=O)(=O)c2ccccc2)c(OC)c1 | -7%
70 | O=C1CCC(/C=C/c2ccccc2)=NN1Cc1ccc(Cl)c(Cl)c1 | -2%
71 | Cc1cnc([N+](=O)[O-])n1CCOC(=O)NC(=O)c1ccc(C(F)(F)F)cc1 | -7%
72 | CCn1nc(NC(=O)c2ccco2)c2cc3cc(C)ccc3nc21 | -24%

# An excerpt from above in order of heavy-atom count, rising.
cpd | smiles | VDR inh
64 | CCNS(=O)(=O)c1cc(Br)ccc1OC | 5%
61 | COc1ccccc1NC(=O)Nc1ncccc1C | -5%
66 | CC(CCc1ccccc1)NC(=O)CNc1cccc([N+](=O)[O-])c1 (centres undefined) | -4%
63 | Cc1cc(C)c(NC(=O)CS(=O)CC(=O)N2CCN(c3ccc(F)cc3)CC2)c(C)c1 (centres undefined) | -6%
62 | Cn1nc(-c2ccccc2)c(-c2ccccc2)c(C(=O)Nc2ccccc2C(N)=O)c1=O | -5%
69 | COc1ccc(N(CC(=O)Nc2ccc3c(c2)OCO3)S(=O)(=O)c2ccccc2)c(OC)c1 | -7%

# (listing goes on)
cpd | smiles | VDR inh
73 | COc1ccc(S(=O)(=O)NCc2ccccn2)cc1OC | 1%
74 | COc1cc(OC)c(C2=NOC(C(=O)NCCc3ccccc3)C2)cc1Cl (centres undefined) | 6%
75 | COc1cccc(NC(=S)N2CCCC2)c1 | 4%
76 | CCOc1ccccc1N(CC)C(=O)Cn1ncc2c1-c1ccccc1OC2 | -3%
77 | Cc1ccc2nc(C)c(C(=O)N/N=C/c3ccc(C(=O)O)cc3)cc2c1 | 8%
78 | CCC(C)NC(=O)CCc1c(C)nc2nc(-c3cc(OC)cc(OC)c3)nn2c1C (centres undefined) | -26%&13%
79 | COc1ccc(/C=C2\SC(=O)N(CCC(=O)NCCCn3ccnc3)C2=O)cc1 | 5%
80 | O=C(NC1CCCC1)C(c1ccncc1)N(C(=O)Cc1cccs1)c1ccccc1 (centres undefined) | 0%
81 | CCOc1cc(C2Nc3ccccc3C(=O)N2c2ccccc2)c(Br)cc1OCC(=O)O (centres undefined) | -14%
82 | CCOc1ccc2c(c1)c(=O)c(C(=O)c1ccc(CC)cc1)cn2CC(=O)Nc1ccccc1C | -19%
83 | C=CCN(C(=O)CNC(=O)c1ccco1)C(C(=O)NC1CCCCC1)c1ccccc1F (centres undefined) | 11%
84 | O=C(COC(=O)C1COc2ccccc2O1)NC(=O)Nc1ccc2c(c1)OCCO2 (centres undefined) | -9%

# 2 compounds picked at random from those above, as already listed:
cpd | smiles | VDR inh
82 | CCOc1ccc2c(c1)c(=O)c(C(=O)c1ccc(CC)cc1)cn2CC(=O)Nc1ccccc1C | -19%
83 | C=CCN(C(=O)CNC(=O)c1ccco1)C(C(=O)NC1CCCCC1)c1ccccc1F (centres undefined) | 11%

# (list continues)
cpd | smiles | VDR inh
85 | COc1ccc(CC(=O)OCC(=O)N2CCN(S(=O)(=O)c3ccc(C)cc3C)CC2)cc1OC | -9%
86 | CCn1cc(C(=O)OCC(=O)c2cc(C)n(-c3ccc(OC(F)F)cc3)c2C)c(=O)c2ccc(C)nc21 | -8%
87 | CC1CCN(S(=O)(=O)c2ccc(C(=O)Nc3nc4ccc(F)cc4s3)cc2)CC1 | 12%
88 | COc1ccc(CCNC(=O)c2ccc3c(c2)ncn3-c2ccc(C)cc2C)cc1OC | 7%
89 | CCC(ONc1ccccc1C(F)(F)F)(C(=O)NN(C)C)c1ccccc1 (centres undefined) | -17%
90 | O=C(c1ccco1)N1CCC[C@@]2(CCN(c3ccccn3)C2)C1 | -15%
91 | COc1cc(NC(=O)c2cc3c(=O)n(Cc4ccco4)ccc3nc2C)cc(OC)c1OC | 2%
92 | CCc1ccccc1NC(=O)c1noc(C(C)C)c1[N+](=O)[O-] | -13%
93 | COc1ccc(/C=C2\SC(=S)N(CCC(=O)Nc3ccc(C(=O)O)cc3)C2=O)cc1OC | 7%
94 | COc1ccccc1OCCSc1nc2ccccc2c(=O)[nH]1 | -13%
95 | Cc1cccc(Nc2nnc(-c3ccc(C)c(S(=O)(=O)N4CCN(C)CC4)c3)c3ccccc23)c1 | -10%
96 | COc1ccc(N2CC(C(=O)OCC(=O)Nc3cc(C)on3)CC2=O)cc1 (centres undefined) | 5%

# Looked up above:
# VDR inh result of cpd 86 reads -8%
# VDR inh result of cpd 96 reads 5%

# Other records
cpd | smiles | VDR inh
97 | O=C(c1ccccc1)c1nn(-c2ccc(Cl)cc2)cc1C(=O)c1cc2ccccc2oc1=O | -4%
98 | CN(CC(=O)Nc1ccccc1C(F)(F)F)C(=O)c1cc(-c2cccs2)nn1-c1ccccc1 | 2%
99 | Cn1c(=O)oc2cc(S(=O)(=O)NCCC(=O)NCCc3ccc(Cl)cc3)ccc21 | 8%
100 | COc1ccc(Cn2cc(C(=O)c3ccc(F)cc3)c(=O)c3cc4c(cc32)OCCO4)cc1 | -1%
101 | Cc1ccc(CN(Cc2ccco2)C(=S)Nc2ccccc2C)cc1 | 11%
102 | CCNC(=O)NC(=O)COC(=O)c1cccc(NS(=O)(=O)/C=C/c2ccccc2)c1 | -23%
103 | CCn1ccc2cc(S(=O)(=O)N3CCC(C(=O)NCc4ccc(OC)cc4)CC3)ccc21 | -1%
104 | CCOC(=O)CNc1nc(C#N)nc(N2CCOCC2)n1 | 6%&-23%
105 | O=C(CN1CCc2ccccc21)NC(=O)NCc1ccccc1 | -6%
106 | CCC(=O)c1c(NC(C)C)cc(C)oc1=O | 4%
107 | CCc1sc(C(=O)Nc2ccsc2C(=O)OC)cc1Br | 4%
108 | COc1cccc(CCC2C(=O)CCCC2=O)c1 | -12%
109 | CC(=O)c1ccc(OCC(=O)NC2CCCN(Cc3ccccc3F)C2)cc1 (centres undefined) | -9%
110 | Oc1ccc(-c2cnns2)c(O)c1 | -20%
111 | CCOC(=O)c1c(C)[nH]c(C)c1S(=O)(=O)N1CCCC(C(=O)N2CCN(c3ccccc3)CC2)C1 (centres undefined) | 9%
112 | CCc1cccc(NC(=O)Cn2c(=O)n(Cc3ccccc3)c(=O)c3c2c2cc(OC)ccc2n3C)c1 | -3%
113 | CCN(CC)C(=O)CN(c1ccc(C)cc1)S(=O)(=O)c1ccc(SC)cc1 | 19%
114 | COc1ccc(C(=O)NCC(c2cccnc2)N2CCc3ccccc3C2)cc1 (centres undefined) | 8%
115 | CCOc1cccc(CNC(=O)c2ccc(N3CCCC3)c(NC(=O)NCc3ccccc3)c2)c1 | 5%
116 | O=C(CSc1nccn1Cc1ccc(Cl)cc1)NCc1ccccc1 | 3%
117 | CCN(C(=O)COC(=O)c1ccco1)c1cccc2ccccc12 | -9%

# This is a subset; count on the stated rates, not on these rows.
